Yeast UUG start – modulators of yeast start codon fidelity, primary screen, whole organism, S. cerevisiae, single point, plate reader; actives 0.13% (n = 350,000); AID 602363, 2012; activity score, % at 18.7 µM; S. cerevisiae UUG-firefly luciferase reporter, luminescence/redox ratio;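 active = replicate mean at a twofold rise or more, about +100% in these data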;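 note: firefly luciferase made from a UUG start codon reports start codon fidelity; reporter light over untreated wells divided by growth signal over untreated wells; some hits fall short of that in this replicate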
MT1-MMP act inh – blockers of MT1-MMP proenzyme processing, primary screen, HT1080 RFP-PRO-GFP cells, GFP/RFP fluorescence. actives 0.061% (n = 360,000). Matrix metalloproteinase-14 (Homo sapiens), P50281. GFP/RFP ratio fluorescence, overnight; percent of plate control window, DMSO zero. GFP/RFP ratio change, % at 20 µM;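 active = GFP/RFP ratio change of at least 30% with cell ATP level not reduced by more than half and red fluorescence within 50% of control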; note: strong numbers were not always called active
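Test system: HT1080 cells expressing an RFP-PRO-GFP fluorescent reporter construct / Compound dosing: single-point 20 µM compound, 1% DMSO / Schedule: cells overnight before dosing, compound overnight, 37 °C, 5% CO2 / Evaluation: GFP/RFP fluorescence ratio / Control set: DMSO and RFP-L50D-GFP cell wells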
PABP FP inh – PABP poly(A) RNA binding inhibitors, primary screen, biochemical, fluorescence polarization, uHTS; inhibition, % at 35 µM; actives 1% (n = 290,000);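 active = 50% or more with normal probe brightness, or confirmed in later tests; inconclusive = above 50% with abnormal brightness, or retests that disagree; inactive = below 50% or failed in later tests; about a fifth of its hits are not listed in these tables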;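 note: calls also rest on retests at 20 µM and on dose response follow-up; controls were probe without protein and protein plus probe with vehicle; some compounds called inactive have numbers as strong as hits; many hits fall short of the cut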
Target sequence (P11940 whole entry, looked up): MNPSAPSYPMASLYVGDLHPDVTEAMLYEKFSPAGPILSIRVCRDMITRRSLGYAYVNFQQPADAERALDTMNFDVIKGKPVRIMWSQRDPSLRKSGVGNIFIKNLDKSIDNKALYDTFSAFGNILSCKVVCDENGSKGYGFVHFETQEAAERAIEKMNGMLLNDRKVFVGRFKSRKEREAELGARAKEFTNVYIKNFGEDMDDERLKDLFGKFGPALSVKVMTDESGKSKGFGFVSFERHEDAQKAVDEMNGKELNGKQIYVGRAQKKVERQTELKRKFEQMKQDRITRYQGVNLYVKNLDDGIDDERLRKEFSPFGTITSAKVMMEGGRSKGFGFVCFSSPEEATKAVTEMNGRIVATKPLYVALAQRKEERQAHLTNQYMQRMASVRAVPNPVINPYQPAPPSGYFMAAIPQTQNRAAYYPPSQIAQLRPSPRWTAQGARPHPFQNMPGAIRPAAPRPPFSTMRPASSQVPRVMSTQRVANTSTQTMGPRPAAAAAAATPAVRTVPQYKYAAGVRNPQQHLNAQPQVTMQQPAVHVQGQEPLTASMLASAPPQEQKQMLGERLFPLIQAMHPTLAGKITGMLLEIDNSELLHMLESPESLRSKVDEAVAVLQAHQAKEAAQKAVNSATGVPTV
Rce1 inhib – yeast Rce1p protease inhibitors, primary screen, biochemical, fluorescence, cell-free homogeneous. yeast membranes, quenched prenylated peptide cleavage fluorescence. calls only. actives 0.27% (n = 290,000). AID 2563, 2010;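 active = fall in fluorescence gain of 50% or more versus controls, with final raw signal at or below 3038400; inconclusive = same 50% fall but final raw signal above 3038400; inactive = fall in fluorescence gain under 50%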;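 note: plate controls were neutral control wells for no effect and wells lacking membranes for full effect; tested at 10 µM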
Target sequence (Q03530 whole entry, looked up): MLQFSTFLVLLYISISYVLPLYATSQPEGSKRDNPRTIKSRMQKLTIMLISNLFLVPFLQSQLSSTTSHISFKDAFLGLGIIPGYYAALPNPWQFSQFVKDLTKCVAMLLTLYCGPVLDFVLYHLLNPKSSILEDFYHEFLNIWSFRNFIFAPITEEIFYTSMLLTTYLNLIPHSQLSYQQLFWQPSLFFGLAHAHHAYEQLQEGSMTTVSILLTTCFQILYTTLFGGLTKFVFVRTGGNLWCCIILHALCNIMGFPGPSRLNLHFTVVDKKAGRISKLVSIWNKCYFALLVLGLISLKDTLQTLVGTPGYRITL
CSC inhib – cancer stem cell viability inhibitors, primary screen, luminescence. cancer stem cell-like cells viability. inhibition, % at 7.5 µM. actives 1.1% (n = 300,000). AID 2717, 2010;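 active = mean at 75% or more and at least half the replicates too; inconclusive = mean and replicates disagree; tested in HMLE shEcad cells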;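 note: 0% = median of negative and 100% = median of positive control wells; the first replicate is given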
eIF4H inh – human eIF4H binding inhibitors, primary screen, translation initiation inhibitor project, biochemical, uHTS, fluorescence polarization. Eukaryotic translation initiation factor 4H (Homo sapiens), Q15056. eIF4H fluorescence polarization binding assay. inhibition, % at 35 µM. actives 0.94% (n = 290,000);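 active = 50% or more with normal probe brightness, or confirmed in later tests; inconclusive = above 50% with abnormal brightness, or retests that disagree; inactive = below 50% or failed in later tests; about a fifth of its hits are not listed in these tables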;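 note: calls also rest on retests at 20 µM and on dose response follow-up; 0% = protein and probe with vehicle and 100% = probe without protein; strong numbers were not always called active; many hits fall short of the cut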
Env fusion inh – inhibitors of HIV-1 Env-driven cell-cell fusion, primary screen, HeLa-JRFL effector, CEM21 target cells, luciferase. inhibition, % at 12.3 µM. actives 1.1% (n = 360,000);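 active = mean replicate inhibition score of at least 50 and every replicate individually at or above 50; inconclusive = only one of the two criteria met; inactive = mean below 50 and not all replicates reaching 50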;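 note: 0% = plate neutral controls and 100% = maraviroc near 300 nM; one replicate is shown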
MT1-MMP act inh RFP – recorded beside MT1-MMP act inh, whose call it bears; RFP signal change, %; measured here: RFP expression control read;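 0 = vehicle wells; hits needed this value within 50% of zero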
Starred values were filed as active, the others as inactive; i = inactive; ? = inconclusive; / = no result given.

SMILES	Yeast UUG start	MT1-MMP act inh	MT1-MMP act inh RFP	PABP FP inh	Rce1 inhib	CSC inhib	eIF4H inh	Env fusion inh
N=c1c(C(=O)NCC2CCCO2)cc2c(=O)n3ccccc3nc2n1Cc1ccccc1 (stereo not given)	-12	-1	-3	-10	?	-13	-7	-18
COC(=O)CN1C(=O)[C@H]2[C@@H](/C=C/c3ccccc3)N3C(=O)CN(Cc4ccccc4)C(=O)[C@@]3(Cc3ccccc3)[C@H]2C1=O	4	2	-3	-6	i	-8	-11	-139
CC(=O)C[C@H](O)CC(=O)[C@H]1OC(=O)CCCCC/C=C/Cc2ccccc21	-4	-11	1	/	/	/	/	3
Cc1cc(C)c(S(=O)(=O)N2CCCCC2CCNC(=O)C(=O)NC2CC2)c(C)c1 (stereo not given)	3	0	-3	/	i	15	/	/
NS(=O)(=O)c1cnccc1Nc1ccc(Cl)c(Cl)c1	-8	-2	4	-3	i	6	-11	/
COc1ccccc1S(=O)(=O)N(C)C[C@H]1Oc2cc(Br)ccc2S(=O)(=O)N([C@@H](C)CO)C[C@H]1C	0	1	-1	/	/	/	/	-5
CCOC(=O)N1CCN(C(=O)c2cn(C)c3ccc(S(=O)(=O)N4CCOCC4)cc3c2=O)CC1	-2	3	7	12	i	-3	-13	0
CCCCn1c(=O)n(C)c(=O)c2c(C(F)(F)F)cc(-c3ccncc3)nc21	9	-1	-7	10	i	0	0	-55
Cc1nn(-c2ccc(F)cc2)c(Cl)c1/C=C1\C(=O)Nc2ccccc21	/	-35	-15	0	i	79*	-5	17
COc1ccccc1CCNC(=O)C(=O)c1cn(CC(=O)N2CCOCC2)c2ccccc12	4	1	4	10	i	1	4	-4
CC1Sc2ccc(S(=O)(=O)N3CCN(c4ccccc4)CC3)cc2NC1=O (stereo not given)	-5	1	-12	2	i	14	-11	4
COc1ccc(C2C3=C(CC(C)(C)CC3=O)N(C)C3=C2C(=O)CC(C)(C)C3)cc1	-2	-1	0	17	i	-6	4	13
O=C(NCCN1CCCCC1)c1cc(OCC(F)(F)F)ccc1OCC(F)(F)F	-3	-2	1	-3	i	-20	0	-123
Cc1cc(=O)[nH]c(N/N=C/c2ccc(F)cc2)n1	-16	4	3	12	i	-14	2	6
Cc1ccc(NC(=S)N2CCCC(c3nc4ccccc4[nH]3)C2)cc1 (stereo not given)	/	0	2	0	i	-11	-5	14
Cn1c(=NC(=O)C(C)(C)C)sc2cccc(F)c21	/	0	3	3	i	5	1	2
CC(=O)Nc1ccc(NC(=O)COC(=O)C2CCCCC2)cc1	-15	1	7	/	/	-17	/	17
NC(CO)C12CC3CC(CC(C3)C1)C2 (stereo not given)	-20	-3	6	7	i	-4	0	0
CSc1sc(C(=O)NC(=O)NCc2cccnc2)c(C)c1-c1ccon1	/	1	-7	-9	/	6	-18	11
O=C(c1cccs1)N(C(=O)c1cccs1)c1ccccn1	-15	0	1	0	i	-2	-9	/
COc1ccc(-c2c(-c3ccccc3OC)oc3ccccc23)cn1	-18	-3	1	/	/	22	/	-46
COc1cccc(N2CCN(C(=O)C3CCCN(S(=O)(=O)c4ccc5c(c4)oc(=O)n5C)C3)CC2)c1 (stereo not given)	-10	2	-25	-5	i	-16	-4	3
O=C(O)CC/C(=N/Nc1ccc([N+](=O)[O-])cc1)C(=O)O	/	0	0	-9	i	7	-8	3
CSc1ccc(CCNC(=O)C2CCCN(c3ncnc4c3nc3n4CCCCC3)C2)cc1 (stereo not given)	-9	-1	-4	6	i	-13	-1	13
CC(C)NC(=O)CN1CCC(O)(c2ccccc2)CC1	/	7	3	0	i	8	0	/
Carrying on:
SMILES	Yeast UUG start	MT1-MMP act inh	MT1-MMP act inh RFP	PABP FP inh	Rce1 inhib	CSC inhib	eIF4H inh	Env fusion inh
CCOc1cc2[nH]c(=O)n(CCCC(=O)N(C)Cc3ccccc3)c(=O)c2cc1OCC	-3	-5	-1	-8	i	-9	-6	25
COc1ccc(S(=O)(=O)N2CCN(CCc3ccccc3)CC2)cc1	-7	3	-2	-11	i	7	-3	-1
c1ccc(Cn2cc(CN3CCCO3)c(-c3ccc4c(c3)OCO4)n2)cc1	-7	2	2	-11	i	-17	-6	18
CC(C)(C)c1ccc(S(=O)(=O)N2CCN(CCC#N)CC2)cc1	-12	-2	-3	-12	i	-1	-6	9
Cc1cccc(CCNC(=O)c2cc(S(=O)(=O)N3CCCC3)cn2C)c1	-13	3	3	16	i	-6	0	23
O=C(NCC(c1cccs1)N1CCOCC1)c1cc2ccccc2oc1=O (stereo not given)	2	2	-6	/	/	4	/	/
COc1ccc(COC(=O)C2CCN(S(=O)(=O)c3ccc(Cl)cc3)CC2)cc1	/	2	0	/	i	-10	/	-25
CC(=O)N1CCc2cc(S(=O)(=O)N3CCCCCC3)ccc21	-7	2	3	0	i	11	0	-5
Cc1ccnc(SCC(=O)c2ccc([N+](=O)[O-])cc2)n1	/	-2	2	14	i	-12	-7	/
CCCCN(C)CC(O)Cn1cc(/C=C/C(=O)c2ccc(C)cc2)c2ccccc21 (stereo not given)	-19	-17	-10	-15	i	82*	4	10
CCOC(=O)c1[nH]c(C)c(C(=O)c2cc(F)ccc2F)c1C	-15	10	-6	-8	i	60	-2	-133
CSc1ccc(NC(=O)NN(c2ccccc2)C2CCS(=O)(=O)C2)cc1 (stereo not given)	-13	-5	3	/	/	/	/	-8
CN(C)CCNC(=O)C(C(=O)c1ccc(F)cc1)n1ccccc1=O (stereo not given)	-18	-6	-1	-1	i	-1	5	-15
COC(=O)c1cc(C(=O)Nc2ccc(Cl)cn2)cc([N+](=O)[O-])c1	-23	3	1	-11	i	-7	3	-6
O=C(O)c1ccccc1S(=O)(=O)c1ccccc1CO	-5	4	7	4	i	-13	-2	/
Cc1ccc(S(=O)(=O)NC(=O)N(CCC#N)Cc2ccccc2)cc1	-15	0	1	18	i	-6	3	10
O=C(NNC(=O)C1CC(=O)N(c2ccc3c(c2)OCCO3)C1)c1ccc(F)cc1 (stereo not given)	-17	7	7	/	i	8	/	-11
COc1ncccc1-c1nnn(-c2ccc(Cl)nc2)n1	-19	5	-1	-10	i	7	0	-14
Cc1ccc(CNC(=O)C2CCCN(c3cnccn3)C2)cc1 (stereo not given)	20	0	3	-6	i	7	-16	-2
COc1ccc(/C=C/c2c(-c3ccc(OC)cc3)oc3ccccc23)cc1	-5	1	-2	11	i	26	12	56*
CC(=O)Nc1ccc2nc(NC(=O)CS(=O)(=O)c3ccccc3)sc2c1	/	4	1	/	i	-11	/	4
CCOC(=O)NC1=NCC(C)S1 (stereo not given)	-16	4	2	10	i	-12	-6	2
COc1ccc(-c2oc(=O)c3cc(OC)c(OC)cc3c2C#C[C@]2(O)CC[C@H]3[C@@H]4CCc5cc(OC)ccc5[C@H]4CC[C@@]32C)cc1	3	2	0	/	/	0	/	-63
COCCNC(=O)C(c1ccc(F)cc1)N(C(=O)CCC(=O)Nc1ccccn1)c1cccc(C)c1 (stereo not given)	-10	-4	-2	9	/	-16	-11	9
Cc1nnc(SCC(=O)NC(C)(C)C)n1NCc1ccc(Cl)cc1	/	1	2	2	i	-12	10	5
Next part:
SMILES	Yeast UUG start	MT1-MMP act inh	MT1-MMP act inh RFP	PABP FP inh	Rce1 inhib	CSC inhib	eIF4H inh	Env fusion inh
CC(C)(C)[C@H]1COC(=O)CCC/C=C/C[C@H](CC(=O)NCCO)C(=O)N1	-19	3	4	/	/	/	/	-10
CCOc1ncccc1C(=O)OCC(=O)c1ccc(C)c(C)c1	/	1	5	-2	i	-11	2	7
O=S(=O)(Nc1cccc(S(=O)(=O)N2CCCC2)c1)c1ccc(Br)cc1	-4	-2	0	/	/	/	/	-45
Cc1ccc(C(C(=O)NC(C)(C)C)N(Cc2cccs2)C(=O)c2ccc3c(c2)OCCO3)cc1 (stereo not given)	/	-11	-7	7	i	/	0	29
Cc1ccc(S(=O)(=O)NCC(=O)NCC(=O)NC(C)c2ccccc2Br)cc1C (stereo not given)	-5	7	1	16	/	-10	-16	22
O=S(=O)(NCC(c1ccccc1)N1CCC(O)CC1)c1ccc(Cl)cc1 (stereo not given)	-10	-2	-3	-3	i	2	-10	-3
Cc1ccccc1-n1nc2c(c1NC(=O)/C=C\c1ccc3c(c1)OCO3)CSC2	-8	-7	-5	-5	i	4	-6	14
OCCC1CN(Cc2cccn2-c2cccnc2)CCN1CCc1ccccc1 (stereo not given)	-12	-3	2	6	i	0	6	-7
CCCCNC(=S)NNC(=O)c1ccncc1	-26	-1	1	-6	i	-17	-1	8
CSc1nc2ncc3c(n2n1)CC(C)(C)CC3=O	/	1	0	-9	i	-24	-2	9
NC(=O)c1ccc(-n2nnnc2SCC(=O)c2ccc(O)c(O)c2)cc1	/	12	2	14	i	16	29	-3
O=C(OCc1cn([C@H]2CN(CC3CCCCC3)[C@@H](c3ccc(Cl)cc3)C[C@@H]2O)nn1)c1ccccc1	-14	-5	-6	/	/	/	/	25
CCOc1ccc(CCNC(=O)CN2C(=O)NC3(CCc4ccccc43)C2=O)cc1OCC (stereo not given)	7	-2	-2	/	i	-8	/	-17
CCc1c(C)nc(N2CCN(c3ccc(OC)cc3)CC2)[nH]c1=O	-10	3	4	9	i	-6	-4	0
Cc1ccc2c(c1)-c1cc(C)nn1C(c1ccc3c(c1)OCO3)N2 (stereo not given)	-10	3	5	0	i	36	-5	-125
COc1ccccc1NC(=O)c1ccc(NC(=O)COC(=O)c2cncc(Br)c2)cc1	-10	-4	0	/	/	15	/	-12
CCOC(=O)c1c(C)[nH]c(N=Nc2cc(C(=O)O)cc(C(=O)O)c2)c1C	6	-8	-10	7	i	-14	25	2
CCOC(=O)c1c(NC(=O)c2cccs2)sc(C)c1C	/	-2	6	-1	i	-31	1	/
Cc1ccc(C(C)C)cc1OCCN1CCCC1	/	-1	0	1	i	-2	7	/
CCN(c1ccccc1)S(=O)(=O)c1cccc(C(=O)OCc2nc3sc(C)c(C)c3c(=O)[nH]2)c1	/	0	-3	-13	i	3	-4	-2
CCCC(=O)Nc1ccc(NC(=S)NC(=O)c2cccs2)cc1	/	-1	0	-12	i	11	-6	0
Cc1cnc(NC(=O)c2ccc(-c3nc4ccccc4s3)o2)s1	-15	0	3	8	i	11	-2	-60
Cc1ccc(N(CC(=O)NC2CCCC2)C(=O)CNC(=O)c2cccs2)cc1C	-5	2	-2	7	i	/	-6	-3
Cc1ccc2[nH]c(=O)c(COC(=O)c3ccccn3)cc2c1	1	-9	1	9	i	-13	-2	/
Cc1cc(Cn2nnc3ccccc32)c(O)c(C(C)(C)C)c1	-9	19	-16	/	i	-4	/	40
O=C1OCCN1C(=O)[C@H]1[C@H](c2ccc(F)cc2)C(c2cccc(Cl)c2)=NN1c1ccc(Br)cc1	2	-9	-7	/	/	/	/	14
COc1ccc(-c2csc(Nc3ccccn3)n2)cc1	-62	-4	-18	13	i	14	-3	-208
Cc1cc2sc(NC(=O)c3ccco3)nc2cc1Cl	-9	1	-4	-4	i	14	4	-106

Screens deposited in PubChem BioAssay by several laboratories.
